Vaccinia inh: blocks a specific stage of Vaccinia orthopoxvirus infection, primary screen, cell-based, single point; Vaccinia-infected cells, mCherry/Venus stage reporter fluorescence; hits give low values; some inactives read as strong as hits; activity change (mCherry), % (concentration not given with the values); actives 0.01% (n = 89,000); AID 1053133, 2014;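 active = mCherry past -33% and 40 or more points under the early reporter, replicates agreeing; inconclusive = past -33% without that gap or agreement; tested in A549 cells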;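 also: scaled between vehicle wells and reference inhibitor wells; 23 nL library stock went into each well; one replicate is shown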
Vaccinia inh Venus: also measured in Vaccinia inh; calls as there; activity change (Venus), %; measured here: Venus reporter, other viral stage;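 negative = less Venus signal; first of two replicates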
Active calls of the source: *; & = joins results of further samples. This is a subset; the hit share may differ from the screen's.

For CC=Cc1ccc2n(c1=O)C[C@@H]1[C@@H](CO)[C@H](C(=O)NCCCN(C)C)[C@H]2N1C(=O)c1ccccc1 (mixture of isomers) the results were Vaccinia inh 10.1 and Vaccinia inh Venus 0.5.
For Cc1ccccc1S(=O)(=O)N1C[C@H]2[C@@H](c3ccccc31)[C@@H](CO)N2C(=O)CC1CC1 the results were Vaccinia inh 5.0 and Vaccinia inh Venus 3.8.
For C/C=C/c1ccc([C@@H]2[C@H](CO)N(C(=O)C3CCOCC3)C23CN(C(=O)NC(C)C)C3)cc1 the results were Vaccinia inh 1.3 and Vaccinia inh Venus 5.5.
For CNC[C@@H]1Oc2c(NC(=O)Nc3ccccc3)cccc2C(=O)N([C@H](C)CO)C[C@@H]1C the results were Vaccinia inh -1.7 and Vaccinia inh Venus -0.5.
For CC(=O)N1CC[C@@H]2[C@H](CO)Nc3ccc(C#Cc4cccnc4)cc3[C@@H]21 the results were Vaccinia inh 9.1 and Vaccinia inh Venus 11.2.
O=C(O)C[C@@H]1C[C@H]2c3cc(NC(=O)NC4CCCCC4)ccc3O[C@H]2[C@H](CO)O1 was read as Vaccinia inh 10.8 and Vaccinia inh Venus 5.7.
COc1ccc(S(=O)(=O)Nc2cccc3c2O[C@H](CN(C)Cc2ccc4c(c2)OCO4)[C@@H](C)CN([C@H](C)CO)C3=O)cc1 was read as Vaccinia inh 3.4 and Vaccinia inh Venus 2.8.
COc1cccc(S(=O)(=O)N[C@@H]2CC[C@H](CCn3cc(-c4ccccc4OC)nn3)O[C@@H]2CO)c1 was read as Vaccinia inh -13.5 and Vaccinia inh Venus -11.1.
COC(=O)[C@H]1[C@H](CO)[C@H]2Cn3c(ccc(C4=CCCCC4)c3=O)[C@H]2N1CC1CCCCC1 was read as Vaccinia inh -23.4 and Vaccinia inh Venus -5.4.
For COc1ccc2c3c(n(C)c2c1)[C@@H](CO)N(C(=O)Cc1ccccn1)CC31CN(C)C1 the results were Vaccinia inh 10.2 and Vaccinia inh Venus 8.1.
Screening Cc1ccc(S(=O)(=O)N(C)C[C@H]2Oc3ccc(N(C)C)cc3C(=O)N([C@H](C)CO)C[C@@H]2C)cc1 returned Vaccinia inh 0.6 and Vaccinia inh Venus -7.4.
COCC(=O)N1CCCCN2[C@H](CO)[C@H](c3ccc(-c4ccc(C)cc4)cc3)[C@@H]2C1 was read as Vaccinia inh -10.0 and Vaccinia inh Venus -9.8.
`COCCNC(=O)C[C@H]1CC[C@H]2[C@H](COc3ccc(NC(=O)C4CCCC4)cc3C(=O)N2C)O1` gave Vaccinia inh 5.4 and Vaccinia inh Venus -0.6.
Cc1ccc(-c2cnc3c(c2)C(=O)N([C@@H](C)CO)C[C@H](C)[C@H](CN(C)C(=O)c2ccccc2)O3)cc1 was read as Vaccinia inh -6.5 and Vaccinia inh Venus -6.1.
Screening C[C@@H]1CCCCO[C@@H](CN(C)Cc2ccc3c(c2)OCO3)[C@H](C)CN([C@@H](C)CO)C(=O)c2cc(NS(=O)(=O)c3ccc(F)cc3)ccc2O1 returned Vaccinia inh -31.6 and Vaccinia inh Venus -25.1.
Screening CCCC#Cc1cnc2c(c1)C(=O)N([C@@H](C)CO)C[C@@H](C)[C@@H](CN(C)C(=O)Nc1cc(F)ccc1F)O2 returned Vaccinia inh -14.5 and Vaccinia inh Venus -6.0.
`CC(C)NC(=O)Nc1ccc2c(c1)C(=O)N([C@@H](C)CO)C[C@H](C)[C@@H](CN(C)Cc1ccc(Cl)c(Cl)c1)OCCCC[C@H](C)O2` gave Vaccinia inh inconclusive.
For N#C[C@H]1[C@H](c2ccc(C#Cc3ccc(F)cc3)cc2)[C@H](CO)N1C(=O)Nc1ccc(F)cc1 the results were Vaccinia inh inconclusive.
For COC(=O)C[C@H]1CC[C@H]2[C@H](COc3ccc(NC(=O)c4ccccc4F)cc3C(=O)N2C)O1 the results were Vaccinia inh 14.2 and Vaccinia inh Venus 8.6.
For O=C(Nc1cccc(Cl)c1)N1C[C@H]2[C@@H](c3ccccc31)[C@@H](CO)N2C(=O)c1cccnc1 the results were Vaccinia inh 15.7 and Vaccinia inh Venus 13.3.

Of the compounds above, these contain a Cl atom:
`CC(C)NC(=O)Nc1ccc2c(c1)C(=O)N([C@@H](C)CO)C[C@H](C)[C@@H](CN(C)Cc1ccc(Cl)c(Cl)c1)OCCCC[C@H](C)O2` gave Vaccinia inh inconclusive.
For O=C(Nc1cccc(Cl)c1)N1C[C@H]2[C@@H](c3ccccc31)[C@@H](CO)N2C(=O)c1cccnc1 the results were Vaccinia inh 15.7 and Vaccinia inh Venus 13.3.

(list continues)
Screening COc1ccccc1-c1ccc2c(c1)O[C@H](CN(C)C(C)=O)[C@H](C)CN([C@H](C)CO)S2(=O)=O returned Vaccinia inh 11.7 and Vaccinia inh Venus 6.3.
For COC(=O)[C@@H]1[C@@H](CO)[C@@H]2Cn3c(ccc(-c4cccc(OC)c4)c3=O)[C@H]1N2C(=O)c1cnccn1 the results were Vaccinia inh 5.6 and Vaccinia inh Venus 1.0.
For N#C[C@@H]1[C@H](c2ccccc2C2=CCCC2)[C@H](CO)N1C(=O)Cc1ccncc1 the results were Vaccinia inh 5.5 and Vaccinia inh Venus 4.2.
`C[C@H]1CN([C@@H](C)CO)C(=O)c2cc(NS(C)(=O)=O)ccc2O[C@H]1CN(C)Cc1ccc(Cl)c(Cl)c1` gave Vaccinia inh -21.8 and Vaccinia inh Venus -16.1.
Screening O=C(Nc1ccccc1F)N1CCCCN2[C@H](CO)[C@H](c3ccc(C#Cc4ccccc4)cc3)[C@H]2C1 returned Vaccinia inh inconclusive.
`CC=Cc1ccc2n(c1=O)C[C@@H]1[C@@H](CO)[C@H](C(=O)NCCC)N(C(=O)CC3CC3)[C@H]21` (mixture of isomers) gave Vaccinia inh 11.2 and Vaccinia inh Venus 13.6.
Screening CN(C)C(=O)C[C@@H]1CC[C@H]2[C@@H](COc3ccc(NC(=O)NCc4ccccc4)cc3C(=O)N2C)O1 returned Vaccinia inh -2.1 and Vaccinia inh Venus -2.1.
`CCNC(=O)C[C@H]1C=C[C@H](NS(=O)(=O)c2ccc(C)cc2)[C@H](CO)O1` gave Vaccinia inh 11.3 and Vaccinia inh Venus 10.1.
CN(C)c1ccc2c(c1)[C@@H]1C[C@@H](CC(=O)NCc3cc(F)ccc3F)O[C@@H](CO)[C@@H]1O2 was read as Vaccinia inh 9.1 and Vaccinia inh Venus 19.0.
CCC(=O)N1C[C@@H](C)[C@@H](OC)CN(C)C(=O)c2ccc(NC(=O)C3CCCCC3)cc2OC[C@@H]1C was read as Vaccinia inh 4.0 and Vaccinia inh Venus -3.7.
C[C@@H]1CN([C@H](C)CO)C(=O)c2cc(NC(=O)C3CC3)ccc2O[C@@H]1CN(C)Cc1ccc(C(F)(F)F)cc1 was read as Vaccinia inh -2.3 and Vaccinia inh Venus -3.3.
CCCNC(=O)Nc1ccc2c(c1)C(=O)N(C)C[C@@H](OC)[C@@H](C)CN(S(C)(=O)=O)[C@H](C)CO2 was read as Vaccinia inh 2.6 and Vaccinia inh Venus 4.2.
C[C@@H]1CN([C@H](C)CO)C(=O)c2cc(NS(=O)(=O)c3ccc(F)cc3)ccc2O[C@@H](C)CCCCO[C@@H]1CN(C)C(=O)NC1CCCCC1 was read as Vaccinia inh inconclusive.
For C[C@H](CO)N1C[C@H](C)[C@H](CN(C)Cc2ccccc2)Oc2c(NC(=O)NC3CCCCC3)cccc2C1=O the results were Vaccinia inh -13.8 and Vaccinia inh Venus -11.3.
For COc1ccc(CNC(=O)C[C@H]2CC[C@@H]3[C@H](COc4ccc(NC(=O)C(C)C)cc4C(=O)N3C)O2)cc1 the results were Vaccinia inh 6.3 and Vaccinia inh Venus -1.3.
Screening Cc1noc(C)c1S(=O)(=O)Nc1ccc2c(c1)C(=O)N([C@@H](C)CO)C[C@@H](C)[C@H](CN(C)C(=O)c1ccncc1)OCCCC[C@@H](C)O2 returned Vaccinia inh 17.6 and Vaccinia inh Venus 18.9.
Screening C[C@H]1CN([C@@H](C)CO)C(=O)c2cccc(NS(=O)(=O)c3ccccc3)c2O[C@@H]1CN(C)C(=O)NC1CCCCC1 returned Vaccinia inh 0.7 and Vaccinia inh Venus -7.7.
O=C(C[C@H]1CC[C@@H]2[C@H](COC[C@H](O)CN2CCc2ccccc2)O1)NCc1ccc(F)cc1 was read as Vaccinia inh -7.2 and Vaccinia inh Venus -2.7.
C[C@@H]1CCCCO[C@H](CN(C)S(=O)(=O)c2ccccc2)[C@H](C)CN([C@@H](C)CO)C(=O)c2cc(NC(=O)NC3CCCCC3)ccc2O1 was read as Vaccinia inh -22.9 and Vaccinia inh Venus -6.7.
For O=S(=O)(c1ccccc1)N1CC[C@@H]2[C@@H](CO)Nc3ccc(C#Cc4cccc(F)c4)cc3[C@@H]21 the results were Vaccinia inh -3.4 and Vaccinia inh Venus -2.6.

4 entries from above, sorted by length of the SMILES, rising.
`CCNC(=O)C[C@H]1C=C[C@H](NS(=O)(=O)c2ccc(C)cc2)[C@H](CO)O1` gave Vaccinia inh 11.3 and Vaccinia inh Venus 10.1.
For O=C(Nc1cccc(Cl)c1)N1C[C@H]2[C@@H](c3ccccc31)[C@@H](CO)N2C(=O)c1cccnc1 the results were Vaccinia inh 15.7 and Vaccinia inh Venus 13.3.
Screening C[C@H]1CN([C@@H](C)CO)C(=O)c2cccc(NS(=O)(=O)c3ccccc3)c2O[C@@H]1CN(C)C(=O)NC1CCCCC1 returned Vaccinia inh 0.7 and Vaccinia inh Venus -7.7.
Screening C[C@@H]1CCCCO[C@@H](CN(C)Cc2ccc3c(c2)OCO3)[C@H](C)CN([C@@H](C)CO)C(=O)c2cc(NS(=O)(=O)c3ccc(F)cc3)ccc2O1 returned Vaccinia inh -31.6 and Vaccinia inh Venus -25.1.

Next section.
`C[C@H](CO)N1C[C@H](C)[C@@H](CN(C)C(=O)Nc2ccc3c(c2)OCO3)OCCCC[C@H](C)Oc2ccc(NS(=O)(=O)c3ccccc3)cc2C1=O` gave Vaccinia inh -3.2 and Vaccinia inh Venus -10.2.
`O=C(C[C@@H]1C=C[C@@H](NC(=O)C2CC2)[C@H](CO)O1)NCc1ccccc1Cl` gave Vaccinia inh 4.7 and Vaccinia inh Venus -2.5.
For C[C@H](CO)N1C[C@H](C)[C@H](CN(C)C(=O)C2CC2)Oc2ncc(C#Cc3cccc(F)c3)cc2C1=O the results were Vaccinia inh -5.5 and Vaccinia inh Venus -3.9.
For C[C@H]1CN([C@@H](C)CO)C(=O)c2cc(C#CCN(C)C)cnc2O[C@@H]1CN(C)S(C)(=O)=O the results were Vaccinia inh 23.3 and Vaccinia inh Venus 14.7.
`C[C@H]1CCCCO[C@H](CN(C)S(=O)(=O)c2ccc(Cl)cc2)[C@@H](C)CN([C@@H](C)CO)C(=O)c2cc(NC(=O)c3ccccc3)ccc2O1` gave Vaccinia inh -17.9 and Vaccinia inh Venus -2.6.
For C[C@@H](NC(=O)C[C@@H]1CC[C@H]2[C@@H](COC[C@H](O)CN2Cc2ccc(C(F)(F)F)cc2)O1)c1ccccc1 the results were Vaccinia inh inconclusive.
O=C(N[C@H]1CC[C@H](CCNS(=O)(=O)c2ccc(Cl)cc2)O[C@@H]1CO)c1cccnc1 was read as Vaccinia inh -4.9 and Vaccinia inh Venus -3.1.
C[C@H]1CN([C@@H](C)CO)C(=O)c2cc(NC(=O)C3CC3)ccc2O[C@H]1CN(C)Cc1ccc(Oc2ccccc2)cc1 was read as Vaccinia inh -19.4 and Vaccinia inh Venus -14.1.
For OC[C@H]1[C@@H](c2ccccc2)C2(CN(Cc3nccs3)C2)N1Cc1cc(F)ccc1F the results were Vaccinia inh -5.8 and Vaccinia inh Venus -1.4.
`O=C(NCc1ccccc1)C1=C[C@H](c2ccc3c(c2)OCO3)C[C@H](OCc2ccc(CO)cc2)O1` gave Vaccinia inh -4.1&17.7 and Vaccinia inh Venus -2.1&6.0.
COC(=O)C[C@@H]1CC[C@H]2[C@@H](COc3ccc(NC(=O)Nc4ccc(C#N)cc4)cc3C(=O)N2C)O1 was read as Vaccinia inh -8.2 and Vaccinia inh Venus -4.8.
For C[C@H]1CN([C@@H](C)CO)C(=O)Cc2cc(NC(=O)Cc3cn(C)c4ccccc34)ccc2O[C@H]1CN(C)Cc1ccc(C(F)(F)F)cc1 the results were Vaccinia inh -12.4 and Vaccinia inh Venus -4.8.
O=C(C[C@H]1CC[C@@H]2[C@H](COC[C@@H](O)CN2C(=O)c2cnccn2)O1)NCc1ccc(Cl)cc1 was read as Vaccinia inh 10.7 and Vaccinia inh Venus 12.2.
`C[C@H]1CN([C@@H](C)CO)C(=O)Cc2cc(NC(=O)Nc3cccc4ccccc34)ccc2O[C@@H]1CN(C)Cc1ccncc1` gave Vaccinia inh 0.2 and Vaccinia inh Venus -3.1.
`C[C@H](CO)N1C[C@H](C)[C@@H](CN(C)C(=O)C2CCCCC2)Oc2cc(-c3cccnc3)ccc2S1(=O)=O` gave Vaccinia inh -1.9 and Vaccinia inh Venus 0.2.
CN1C(=O)c2cc(NC(=O)c3ccc(F)c(F)c3)ccc2OC[C@@H]2O[C@@H](CC(=O)N3CCOCC3)CC[C@@H]21 was read as Vaccinia inh -8.8 and Vaccinia inh Venus -6.7.
For CCCNC(=O)N1CC2(CN(CC3CCCCC3)C2)c2c(n(C)c3cc(OC)ccc23)[C@@H]1CO the results were Vaccinia inh inconclusive.
Screening COc1ccc(NC(=O)Nc2ccc3c(c2)[C@@H]2C[C@H](CC(=O)N(C)C)O[C@@H](CO)[C@@H]2O3)cc1 returned Vaccinia inh 9.0 and Vaccinia inh Venus 7.5.
`CN(C)CCCNC(=O)C[C@@H]1CC[C@H]2[C@H](COc3ccc(NC(=O)NC4CCCC4)cc3C(=O)N2C)O1` gave Vaccinia inh 16.3 and Vaccinia inh Venus 7.3.
COC(=O)C[C@@H]1CC[C@H]2[C@@H](COc3ccc(NC(=O)c4ccc(OC)cc4)cc3C(=O)N2C)O1 was read as Vaccinia inh -1.2 and Vaccinia inh Venus -2.7.
`CCCC#Cc1ccc(CC[C@H]2O[C@H]3CC[C@@H](CO)O[C@H]3C[C@H]2NC(=O)CN2CCOCC2)cc1` gave Vaccinia inh 9.0 and Vaccinia inh Venus 2.5.
